Screening data (PubChem)
TRPML1 inh – human mucolipin-1 channel inhibition; actives 0.02% (n = 390,000); TRPML1-inducible cells, Ca2+ dye fluorescence, FDSS; hits give low values; inhibition of EC80 agonist-evoked calcium signal; Q9GZU1; activity change, negative = inhibition, % (concentration not given with the values); in the data active means activity change below about -50%; inconclusive means about -30% to -50%; inactive means above about -30%;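 also: stimulus is agonist 54-4 at its EC80 concentration; % is scaled to controls: 0 for no effect and ±100 for the full control effect; compound concentration not given in the record; the text of the record puts the active cut at -80%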
Target sequence (Q9GZU1 whole entry, looked up): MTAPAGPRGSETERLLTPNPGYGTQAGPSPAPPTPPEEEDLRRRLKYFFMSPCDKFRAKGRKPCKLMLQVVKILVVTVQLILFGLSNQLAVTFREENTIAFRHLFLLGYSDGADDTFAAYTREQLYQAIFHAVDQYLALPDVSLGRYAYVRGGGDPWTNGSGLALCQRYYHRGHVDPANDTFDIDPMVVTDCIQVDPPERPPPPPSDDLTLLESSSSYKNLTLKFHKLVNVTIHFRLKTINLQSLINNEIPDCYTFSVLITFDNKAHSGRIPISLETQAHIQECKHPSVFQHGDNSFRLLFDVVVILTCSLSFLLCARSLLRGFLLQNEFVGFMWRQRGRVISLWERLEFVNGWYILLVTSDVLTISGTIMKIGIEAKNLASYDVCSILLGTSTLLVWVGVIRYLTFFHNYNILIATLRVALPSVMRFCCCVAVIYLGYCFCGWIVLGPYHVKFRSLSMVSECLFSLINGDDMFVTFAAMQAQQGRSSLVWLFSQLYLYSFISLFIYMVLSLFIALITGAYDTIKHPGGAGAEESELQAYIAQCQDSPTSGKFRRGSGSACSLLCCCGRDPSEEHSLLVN
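Tet-induced TRPML1-DL cells loaded with Ca8 no-wash calcium dye were read kinetically on FDSS. Compound addition was followed by EC80 agonist 54-4 (4 uM final); inhibition was read over 110 s.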
gsp antag – antagonizes gsp, the McCune-Albright syndrome mutation | gsp-mutant cells, cAMP HTRF, 30 min; control for the full effect not named in the record | AID 624288 | Potency, µM (top dose mostly 76.9 µM), for the others: at the top dose activity change, negative = inhibition, usual class: inhibitors | actives 0.4% (n = 340,000); active = falling curve of any shape with a large fitted effect; inconclusive = falling curve, mostly with a smaller effect; inactive = flat or rising curve; cell line not stated here;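 also: intracellular cAMP measured with PDE inhibitor Ro 20-1724 present during compound exposure; potency is read from the fitted curve at half-maximal effect; % is scaled to controls: 0 for no effect and ±100 for the full control effect; nearly all actives have a fitted effect of over 65% in size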
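G418-selected cells were plated in DMEM/10% FBS for 16-24 h at 37C, then treated with compounds plus the PDE inhibitor […] (300 uM solution added) for 30 min at 37C. Intracellular cAMP was measured by HTRF after 30 min lysis at room temperature.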
TRPV1 PAM – enhances activation of the human vanilloid receptor TRPV1; TRPV1-expressing cells, Fluo-8 calcium influx, capsaicin EC20 potentiation; host cell line not named in the record; control for the full effect not named in the record; potentiation, % at 8.33 µM; actives 0.02% (n = 320,000); active means potentiation above 80%; inconclusive means 30% to 80%; inactive means below 30%; also: 0% is about no effect
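Fluo-8 calcium influx in TRPV1-expressing cells, kinetic read (ex 480/em 520 nm). Compound added and read 3 min for agonist activity, followed by capsaicin at EC20 final and 2 min further read for enhancement.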
Menin MLL FP FL – inhibitors of human menin-MLL interaction, wild-type MLL peptide. Fluorescence polarization, fluorescein-MLL peptide displacement from menin. FP activity change, % at 61.4 µM. 290,000 tested, under 10 active. AID 1766; inconclusive = falling polarisation curve, or a change in total fluorescence; inactive = total fluorescence flat and polarisation flat or rising; no compound was filed as active; the % refers to the polarisation; negative = inhibition;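 also: % of control where 0% means no effect; inhibitors lower the polarisation; unlabelled MLL peptide was the positive control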
Sfp inh – blocks B. subtilis Sfp PPTase activity; actives 3.5% (n = 310,000); Potency, µM, for the others: max response, negative = inhibition, actives largely listed as inhibitors; Q9F4F7; Biochemical Sfp PPTase activity, qHTS; active = well fitted inhibition curve with a large enough effect; inconclusive = small, poorly fitted or top-dose-only effect, or another doubt; inactive = no such curve, though single readings can be large or run the other way;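 also: the enzyme is Sfp with the accession as filed and its product quenches rhodamine fluorescence; potency is read from the fitted curve at half-maximal effect; 0% = enzyme reaction without inhibitor and -100% = no enzyme wells; top concentration of the series not given in the record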
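Fluorescence-quenching assay: 15 nM Sfp-PPTase preincubated 15 min at room temperature with compound, then 5 uM rhodamine-CoA and 12.5 uM BHQ-2-labelled YbbR peptide added. Fluorescence (ex 525/em 598 nm) read at start and after 30 min; difference gives rate.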
ClpP mod – qHTS Assay for Activators of ClpP; ATP-dependent Clp protease proteolytic subunit (Bacillus subtilis (strain 168)), P80244; purified B. subtilis ClpP, FRET peptide cleavage, 20 min; Potency, µM (titrated, usually from 57.5 µM), for inactives: at the top dose activity change, negative = active; actives 1.9% (n = 340,000); active = well fitted falling curve with a large enough effect; inconclusive = small, poorly fitted or top-dose-only effect; inactive = no such curve, though single readings can be large or run the other way; also: potency is read from the fitted curve at half-maximal effect; the source files actives as falling curves though it sought activators and does not explain the sign; nearly all actives have a fitted effect of over 65% in size; many hits overshoot -100%
Target sequence (P80244 whole entry, looked up): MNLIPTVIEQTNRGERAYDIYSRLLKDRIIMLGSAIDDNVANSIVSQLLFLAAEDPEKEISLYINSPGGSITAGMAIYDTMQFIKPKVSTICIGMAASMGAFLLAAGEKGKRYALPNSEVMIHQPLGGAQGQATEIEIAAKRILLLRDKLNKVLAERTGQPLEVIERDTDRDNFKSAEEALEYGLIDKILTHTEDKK
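FRET quenching reversal measured ClpP activation: 10 microg/mL B. subtilis ClpP at pH 8 with the FRET-FV decapeptide, read at 430 nm after 320 nm excitation. The 20-min minus 0-min signal was scaled between DMSO/no-enzyme wells and ADEP (5.8 microM final).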
gsp agonist – gsp mutant agonism; gsp mutant cells, cAMP HTRF, 30 min; control for the full effect not named in the record; Potency, µM (titrated, usually from 76.9 µM), for the others: top-dose activation (cAMP increase), hits mostly activators; actives 0.13% (n = 340,000); active = well fitted activation curve with a large enough effect; inconclusive = small, poorly fitted or top-dose-only effect, or another doubt; inactive = no such curve, though single readings can be large or run the other way; cell line not stated here;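 also: phosphodiesterase inhibitor Ro 20-1724 added with compounds to block cAMP breakdown; potency is read from the fitted curve at half-maximal effect; nearly all actives have a fitted effect of over 60% in size; about a fifth of the inactives were tested at one dose only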
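Cells in DMEM/10% FBS with G418 were pretreated with compounds in DMSO plus […] (300 uM stock) for 30 min at 37C. cAMP was measured by HTRF (cAMP-d2 plus anti-cAMP antibody-K) after 30 min at room temperature.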
The depositor's hits bear a star; ? = inconclusive; / = no result given; [ ] = another dose, or the depositor's remark. Hits appear at their usual frequency. About 4.9% of those tested had a hit in this group.

SMILES | TRPML1 inh | gsp antag | TRPV1 PAM | Menin MLL FP FL | Sfp inh | ClpP mod | gsp agonist
CN(Cc1ccc(C(C)(C)C)cc1)C(=O)C1CCN(C(=O)Nc2ccccc2)CC1 | 6 | -7% | -14 | / | / | / | 12%[15.4 µM]
COc1cccc(CC2(CO)CCCN(Cc3ccc4c(c3)OCCO4)C2)c1 (centres undefined) | 5 | 2% | -6 | 1.4 | 3% | / | 25%
Cc1ncoc1C(=O)NCc1ccccc1Cl | 9 | -2% | 0 | 0.7 | 24% | 1.1% | -69%[inhibitor]
O=C(N/N=C/C(Cl)=C\c1ccccc1)c1cccs1 | 7 | ? | -2 | 1.9 | 17% | / | ?
CC(C)(C)NC(=O)COc1ccc(CNc2ccc3[nH]c(=O)[nH]c3c2)cc1 | 8 | -25% | 1 | -10 | 56µM* | 22µM* | -5%
O=C(CSCc1cccc(CSCC(=O)Nc2ccc3ccccc3c2)n1)Nc1ccc2ccccc2c1 | 87 | -39% | -2 | -1.5 | 27% | -1.9% | -7%
CCOc1ccc(S(=O)(=O)NCCc2ccccn2)cc1 | -20 | 8% | / | / | / | 1.8% | -17%
COc1ccc(S(=O)(=O)N2CCCCCC2)cc1N(C)S(=O)(=O)c1ccc(Cl)cc1 | 56 | -15% | -11 | -2.8 | 26% | 0.8% | -7%
Cc1ccc2occ(/C=C/C(=O)O)c(=O)c2c1 | 2 | -1% | -9 | 1.9 | 17% | -4.3% | 3%
CC1Oc2ccccc2C=C1/C=N/NC(=O)[C@@H](C)NC(=O)OC(C)(C)C (some centres undefined) | 0 | -6% | 11 | 5.7 | 17% | -1.9% | -1%[15.4 µM]
COc1ccc(-c2cc(C3CC3)nc(SCC(=O)c3cccs3)c2C#N)cc1 | -15 | -4% | 4 | 2.3 | 9% | 1.3% | 29%
O=C(NCc1ccc(F)cc1Cl)C1CC(=O)N(C2CCCCCCC2)C1 (centres undefined) | 4 | -6% | -15 | 1.3 | 16% | 0.0% | ?
CC1CCCN(CCOc2cccc(Oc3ccccc3)c2)C1 (centres undefined) | 3 | 24% | -1 | -2.3 | -13% | -0.4% | 1%
C[C@H]1CN=C(Nc2ccccc2)N1CCC1CCCC1 | 5 | 5% | -5 | -1.2 | -5% | -2.9% | /
O=[N+]([O-])c1ccc(Cc2ccccn2)c([N+](=O)[O-])c1 | -10 | 1% | / | / | / | 0.7% | 2%[15.4 µM]
CN(C(=O)CSc1cc(Cl)ccc1Cl)C1CCS(=O)(=O)C1 (centres undefined) | 19 | 0% | / | / | / | -1.8% | 7%[15.4 µM]
CCN(CC)CCCNC(=O)c1nn(-c2cccc(OC)c2)c(=O)c2ccccc12 | 13 | 11% | 0 | -1.0 | 5% | -0.4% | ?
CN(C)S(=O)(=O)c1cccc(-c2nnc(-c3ccccc3)o2)c1 | 59 | -13% | 9 | 0.8 | 3% | -25% | 5%
COC(=O)[C@H](CCSC)NC(=O)N1CCN(c2cccc(C(F)(F)F)c2)CC1 | 60 | -8% | -11 | -0.8 | 2% | -2.3% | -51%[inhibitor]
Cc1ccc(OCC(=O)NN2C(=O)c3ccccc3C2=O)c(C)c1 | 9 | 0% | 9 | -1.2 | 15% | 0.6% | ?
CC(=O)C(C)Oc1ccc(Cc2ncc(C(F)(F)F)cc2Cl)cc1 (centres undefined) | 9 | -40% | -7 | 0.9 | 13% | / | 32%[15.4 µM]
Cc1ccc(SCC(=O)N2c3ccccc3Sc3ccccc32)cc1 | -3 | -16% | 6 | -0.5 | 0% | 0.5% | -50%[inhibitor]
N#CNC(=Nc1cccc(Cl)c1)Oc1ccccc1 | 8 | -3% | 0 | 2.3 | 12% | 1.3% | 25%
CCN(CC)S(=O)(=O)c1cc(NC(=O)C(C)OC(=O)c2[nH]c(C)c(C(C)=O)c2C)ccc1C (centres undefined) | 3 | -30% | -11 | 6.1 | 21% | 1.2% | -1%
COc1cccc(/C=N/Nc2ncnc3scc(-c4ccccc4)c23)c1OC | -4 | 8% | -4 | 4.6 | -16% | -5.5% | ?
CC(C)NC(=O)c1sc(=S)n2c1[nH]c(=O)c1ccc(C(=O)NCCc3ccc(Cl)cc3)cc12 | 2 | ? | 2 | / | -1% | -1.2% | -15%
Cc1cc(NC(=O)c2ccco2)no1 | 0 | 2% | 12 | 0.8 | 7% | 1.2% | 9%
COc1ccc(CCNC(=O)c2cc(=O)n(C)c(=O)n2C)cc1OC | -10 | 0% | 1 | -2.7 | 0% | / | -8%[15.4 µM]
COc1ccc(NS(=O)(=O)c2cccc(NC(=O)c3cnccn3)c2)cc1Br | -5 | -14% | -7 | -1.5 | 6% | / | 7%
CCn1c(-c2cccnc2Cl)nc2cc(Cl)c(Cl)cc21 | -7 | -11% | / | -0.6 | -14% | -17% | 24%
Cc1ccc(NC(=O)CN(C)C(=O)/C=C/c2cccc(F)c2)cc1 | 0 | 7% | -9 | 0.2 | 15% | / | 0%[15.4 µM]
COc1ccc(C(NC(=O)/C=C/c2ccco2)c2ccc(OC)cc2)cc1 | -1 | -1% | -5 | 5.1 | 25µM* | -5.2% | 5%
COc1cccc(-c2noc(Cn3nc(C)c([N+](=O)[O-])c3C)n2)c1 | 7 | -20% | / | 9.1 | 35µM* | -0.8% | -33%[inhibitor]
Cc1ccccc1SCC(=O)Nc1ccc(N2CCOCC2)cc1 | 40 | -6% | 5 | 4.8 | 17% | / | 2%[15.4 µM]
O=c1[nH]c2c(cc1CNCCN1CCOCC1)c(-c1cccc(F)c1)nn2-c1ccccc1 | / | / | -3 | -0.7 | -2% | / | /
O=C(O)CSCC(=O)Nc1ccccn1 | 6 | 20% | 12 | 1.5 | 0% | / | 7%[15.4 µM]
O=S(=O)(Cc1cc(-c2ccccc2)no1)c1ccccc1 | -19 | 1% | -25 | 0.0 | 5% | / | -1%
C=C(C)CNC(=S)N/N=C/c1ccc(NC(C)=O)cc1 | -10 | -1% | 6 | 1.6 | 6% | / | 53%
CCc1cccc(NC(=O)CSc2ncccc2C(=O)Oc2ccccc2Cl)c1 | 44 | / | ? | / | / | -0.1% | /
Cc1nonc1NC(=O)CSc1nc2cc(Cl)ccc2c2c1CCCC2 | 3 | -19% | -4 | 6.4 | ? | 2.9% | -3%

Taken from above.
Result for COc1cccc(-c2noc(Cn3nc(C)c([N+](=O)[O-])c3C)n2)c1 under Sfp inh: 35µM*
Result for Cc1ccccc1SCC(=O)Nc1ccc(N2CCOCC2)cc1 under TRPV1 PAM: 5

Carrying on.
SMILES | TRPML1 inh | gsp antag | TRPV1 PAM | Menin MLL FP FL | Sfp inh | ClpP mod | gsp agonist
CC(C)(C)NC(=O)C(c1ccc(Cl)cc1)N(CCO)C(=O)c1snc(C(N)=O)c1N (centres undefined) | -7 | 8% | -22 | -3.2 | 3% | -11% | 15%
C=CCNC(=S)N1CCC2CC1c1c(Cl)cccc12 (centres undefined) | 22 | / | / | / | / | -0.1% | -59%[inhibitor]
COc1ccc(C(=O)COC(=O)CN2CC(=O)Oc3ccccc32)cc1Br | -8 | -17% | 6 | 4.7 | ? | -4.2% | 8%
O=C(Nc1ccc(CN2CCOCC2)cc1)c1ccc2ccccc2c1 | -3 | 2% | -4 | -3.9 | 2% | -2.9% | -3%[15.4 µM]
O=C(CN1CCN(S(=O)(=O)c2ccc(F)c(Cl)c2)CC1)N1CCc2ccccc21 | 2 | -10% | -8 | / | / | -0.6% | -27%
Cc1ccc(NC(=O)CN2C(=O)S/C(=C\c3cccn3-c3cccc(C(=O)O)c3)C2=O)cc1C | 6 | -16% | 0 | 12 | ? | / | -11%[15.4 µM]
COc1ccc(C(=O)CC(C(=O)O)c2ccc3c(c2)OCO3)cc1OC (centres undefined) | 25 | / | / | / | / | -1.3% | 22%
COc1ccc(CCNC(=O)CCN2C(=O)COc3ccccc32)cc1OC | -10 | 0% | 7 | 1.2 | 14% | 0.1% | 4%
O=C(Cn1cc(COc2ccccc2[N+](=O)[O-])nn1)c1ccc(O)cc1 | -8 | -7% | / | / | / | -1.5% | /
Cc1ccccc1NC(=O)Cc1nc(COC(=O)CCC(=O)c2ccccc2)cs1 | 6 | -5% | 16 | / | / | -0.1% | 18%
COC(=O)c1ccc(/C=N\N2CCN(Cc3ccc(C)cc3)CC2)cc1 | 1 | 12% | 27 | -6.8 | 9% | 0.3% | -20%
CN(Cc1ccccc1)C(=O)COC(=O)C12CC3CC(CC(Br)(C3)C1)C2 | -19 | -5% | / | / | / | 0.3% | -3%
O=C(COc1ccc(C(=O)c2ccc(F)cc2)cc1)NCc1ccc(F)cc1 | -22 | -9% | -10 | 0.4 | -29% | 0.4% | -38%[inhibitor]
Cc1c(Cl)cccc1NC(=S)NCC(C)C | 1 | -12% | -12 | 5.7 | 3% | / | -4%[15.4 µM]
CC(C)CN1C(=O)C(=O)N(CC(=O)NCCCc2ccccc2)C1=O | 6 | / | / | / | / | 0.5% | 9%
CCN(CC)S(=O)(=O)c1ccc2[nH]cc(C(=O)NCCc3ccc(OC)c(OC)c3)c(=O)c2c1 | -9 | -1% | 6 | -0.2 | 8% | -20% | 6%
Cc1cc(C(=O)N2CCCC(C(=O)c3cc(F)ccc3F)C2)c(C)o1 (centres undefined) | 2 | 7% | -9 | -0.3 | 5% | / | 17%
OC(CCN1CCC2(CC1)OCCO2)C(F)(F)F (centres undefined) | 12 | 7% | 4 | -0.1 | 20% | / | 4%[15.4 µM]
CCOC(=O)[C@H]1[C@H]2COc3ccc(Cl)cc3[C@@H]2N2C(=O)CN(CC3CCCO3)C(=O)[C@@]12C (some centres undefined) | 51 | 3% | -7 | / | / | 4.0% | /
Cc1nc2ccc(NC(=O)NC(=O)c3c(Cl)cccc3Cl)cc2o1 | 11 | 5% | 14 | 9.6 | 6% | / | 13%
OCCCn1c(C2CCCN2c2nc(-c3ccc(F)cc3)cs2)nc2cc(C(F)(F)F)ccc21 (centres undefined) | -4 | -17% | / | / | / | -0.3% | /
